Assay outcomes deposited in PubChem by PCMD.
Biofilm kill mix = clotrimazole potentiators killing C. albicans biofilm, primary screen, 4-compound mixtures. C. albicans biofilm persisters + clotrimazole, fluorescence viability; primary screen in compound mixtures of four per well. inhibition, % at 7.6 µM. 120,000 compounds, 0.02% hits. AID 1242, 2008;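 active = inhibition above 30.3% in the primary screen of four-compound pools, then above 30% when the compound was retested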;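 note: compounds exposed to preformed 24 h biofilms for 48 h; the number belongs to the whole pool; some results filed as inactive read as strong as hits; inactives centre near 12; 0% = biofilm with clotrimazole alone and 100% = kill control; retested singly at about 60 µM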
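Probe or stimulus – Clotrimazole 50 µg/mL co-treatment · System – C. albicans biofilms · Schedule – 24 h biofilm formation, then 48 h compound exposure, 37 °C · Evaluation – percent inhibition of biofilm viability · Technique – 2-h Alamar Blue fluorescence, 535/590 nm excitation/emission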
Starred values were filed as active, the others as inactive. Some of the compounds tested; count on the stated rates, not on these rows.

compound	Biofilm kill mix
CCCOC(=O)/C=C/c1c(C)[nH]c(=O)[nH]c1=O	14
C#CCN(C)CCCOc1ccc(Cl)cc1Cl	10
COc1ccc(C2CC(=O)Oc3c(C(CCN4CCCC(C)C4)c4ccc(N(C)C)cc4)c(OC)cc(OC)c32)cc1 (centres undefined)	7
Cc1[nH]c2ccccc2c1/C=N/NC(=O)CNC(=O)c1ccco1	13
CCCn1nnc(NC(=O)c2ccc3ccccc3c2)n1	18
O=C1NC(c2ccccc2)=C(c2ccc3ccccc3n2)C(c2ccccc2)N1 (centres undefined)	14
O=C(Oc1nsnc1N1CCCCC1)N1CCOCC1	5
CCCCNC(=O)c1cc2cccc([N+](=O)[O-])c2[nH]1	24
COc1cc(/C=C/C(=O)Nc2ccncc2)cc(OC)c1OC	12
Cn1cc(Cl)c(/C=C(\C#N)S(=O)(=O)c2ccccc2)n1	9
O=C(N/N=C/c1cccnc1)c1cc(-c2ccccc2OCc2ccccc2)n[nH]1	3
Cc1sc2ncn(CC(=O)NCc3ccco3)c(=O)c2c1-c1ccccc1	24
COc1ccc(NC(C)=O)cc1CNC(=O)COc1c(C)c(C)cc(C)c1C	4
NC(=O)c1coc(-c2ccccc2)n1	9
O=Cc1ccccc1OCc1nnsc1Cl	-2
CCCCOC(=O)Nc1ccc(C(C)C)cc1	17
NNc1nc2sc3c(c2c(=O)n1-c1ccccc1)CCCC3	-6
CN(CCc1ccccn1)C(=S)NC(=O)c1ccco1	16
O=C1C(Cl)=C(Nc2ccc(O)cc2)C(=O)c2ccccc21	15
O=c1cc(-c2ccc(O)c(O)c2)oc2c(C3O[C@H](CO)[C@@H](O)[C@H](O)[C@H]3O)c(O)cc(O)c12 (some centres undefined)	9
O=C(CSC1=NNC(c2ccccn2)S1)Nc1ccc(C(F)(F)F)cc1 (centres undefined)	29
O=C(Nc1ccc(C(=O)N2CCOCC2)cc1)c1cccc([N+](=O)[O-])c1	13
COc1ccccc1/C=C1\Cc2ccccc2C1=O	23
Cn1nc(C(=O)Nc2ccc3c(c2)OCCO3)cc1C(=O)O	14
CC(C)N1CCN(Cc2cccc(-n3cccn3)c2)CC1CCO (centres undefined)	21
CCN(CC)C(=O)CSc1nc2c(sc(=S)n2-c2ccccc2)c(=O)[nH]1	30
O=C(NNC(=S)Nc1ccc(F)c(Cl)c1)c1ccccc1Br	8
O=[N+]([O-])c1ccn(-c2nc(-c3ccccc3)cc(C(F)(F)F)n2)n1	1
CN1C(=O)/C(=C/c2ccc3c(c2)OCO3)N=C1c1ccccc1	12
COc1ccc(CN(Cc2cc3cccc(C)c3n3nnnc23)C(=O)N2CCOCC2)cc1	15
Cc1ccc(-c2nnc(SCC(=O)CC(=O)Nc3ccccc3)n2C)cc1	18
C=CCNC(=S)NNC(=O)c1ccc(Br)cc1	7
C=CCn1c(SCc2ccc(C(=O)NCCO)cc2)nc2sc(C)c(C)c2c1=O	10
COc1ccc(C2CC3(CC(C)(C)NC(SC)=N3)Oc3cc(O)cc(C)c32)cc1 (centres undefined)	7
COc1cccc(CC(=O)NCC2(N3CCCCC3)CCCCC2)c1	12
CC(C)Oc1ccc(C(=O)Nc2ccc(C(F)(F)F)n(C)c2=O)cc1	-4
O=C1NC(=O)C(CC(=O)N(Cc2cccs2)C2(C(=O)NC3CCCCC3)CCCCC2)N1 (centres undefined)	12
Cn1cc(S(=O)(=O)Oc2ccccc2)c(=O)n(C)c1=O	9
O=C(/C=C/c1ccc(Cl)cc1)NC(=S)Nc1ccc(NC(=O)c2ccco2)cc1	-7
O=C(/C=C/c1ccccc1)N1CCC[C@H]1CO	12

The last seven entries of the part before lead into the next.
compound	Biofilm kill mix
COc1ccc(C2CC3(CC(C)(C)NC(SC)=N3)Oc3cc(O)cc(C)c32)cc1 (centres undefined)	7
COc1cccc(CC(=O)NCC2(N3CCCCC3)CCCCC2)c1	12
CC(C)Oc1ccc(C(=O)Nc2ccc(C(F)(F)F)n(C)c2=O)cc1	-4
O=C1NC(=O)C(CC(=O)N(Cc2cccs2)C2(C(=O)NC3CCCCC3)CCCCC2)N1 (centres undefined)	12
Cn1cc(S(=O)(=O)Oc2ccccc2)c(=O)n(C)c1=O	9
O=C(/C=C/c1ccc(Cl)cc1)NC(=S)Nc1ccc(NC(=O)c2ccco2)cc1	-7
O=C(/C=C/c1ccccc1)N1CCC[C@H]1CO	12
NC(=O)C1CC(=O)N(c2ccc(OCc3c(F)cccc3Cl)cc2)C1 (centres undefined)	-1
CN(CCC1CCOCC1)Cc1nc(Cc2ccccc2F)no1	14
COc1cc(OC)cc(C(=O)N[C@H](C(=O)NCCc2c[nH]c3ccccc23)C(C)C)c1	18
CC(=O)OC(COC1C[C@@H]2CC[C@@]1(C)C2(C)C)C[N+]1(C)CCCCC1 (some centres undefined)	15
Cn1ccc(O)c(C#N)c1=O	0
CCN(CC)c1ccc(N2C(=O)CSC2=S)cc1	2
O=C(CN1C(=O)/C(=C/c2ccccc2)SC1=S)NNC(=O)c1ccccc1O	17
Cc1cc(C)n(C(=O)Cn2nc([N+](=O)[O-])c(Br)c2C)n1	17
Cc1ccccc1OCC(=O)N/N=C/C=C/c1ccccc1	17
CCCC12CN(C(=O)c3ccc([N+](=O)[O-])cc3)CC(C)(CN(C(=O)c3ccc([N+](=O)[O-])cc3)C1)C2=O	13
Cc1cc(C)nc(SCc2cc(=O)c(OC(=O)c3cc([N+](=O)[O-])ccc3Cl)co2)n1	19
COc1ccc(/C=C/C(=O)c2ccc(NS(=O)(=O)c3ccc(C)cc3)cc2)cc1O	-2
CN(C)/C=N/c1sc2c(c1C#N)CC(C)(C)NC2(C)C	7
COc1cccc(NC(=O)c2ccc(C(=O)c3ccccc3)o2)c1	-3
COc1cc(OC)cc(C(=O)NCC(=O)OCC(=O)Nc2cc(S(C)(=O)=O)ccc2Cl)c1	25
NC(=O)CSc1cn(Cc2cccc(F)c2)c2ccccc12	20
CC(C)(CCl)C(=O)Nc1ccnc(-c2ccncc2)n1	9
CN1C=CC=C/C1=C1\SC(=S)N(CC(=O)O)C1=O	7
CCOC(=O)c1c(OCCO)nn(-c2ccccc2)c1N	8
Cc1ccc(C(=O)n2ncn(C)c2=S)cc1	18
CCN(CC)CCNCc1ccc(OCc2ccc(Cl)nc2)c(OC)c1	18
COP(=O)(OC)C(Nc1ccc(C)cc1)c1ccc([N+](=O)[O-])cc1 (centres undefined)	17
CN1CCN(NC(=O)C2CC2)CC1	24
O=c1oc2ccccc2n1Cc1cccc(Cl)c1	10
O=C(NCc1ccncc1)c1cc(F)c(F)cc1Cl	7
Cc1c(C=O)c(Cl)n(C)c(=O)c1C#N	-5
Cc1cccc(-n2nc([N+](=O)[O-])c(=NC3CCN(Cc4ccccc4)CC3)n2O)c1	9
CCn1c(=N)c(S(=O)(=O)c2ccc(Cl)cc2)cc2c(=O)n3ccccc3nc21	-1
COc1ccc(Cn2c(C3CCCCC3)nc3c(c(=O)c4ccccc4n3C)c2=O)cc1	14
CCCCn1c(/N=C/c2ccccc2NS(=O)(=O)c2ccc(C)cc2)nc2ccccc21	5
CCOc1ccc(-n2ccnc2SCC(=O)Nc2cc(C)on2)cc1	16
O=C(CSc1nnc(-c2ccccc2F)n1C1CC1)NC(=O)c1cccc([N+](=O)[O-])c1	10
O=C(OCc1nnc(-c2ccccc2)o1)c1cc(Cl)ccc1[N+](=O)[O-]	16
Cc1ccccc1N(CC(=O)Nc1ccccc1C(=O)NCc1ccco1)S(=O)(=O)c1ccccc1	8
CN(C)/C=C1\C(=O)N(c2ccc(F)cc2F)C(c2cccnc2)S1(=O)=O (centres undefined)	15
COc1ccccc1N=Nc1c(C)noc1C	22
COc1ccc(-c2csc(NC(=O)c3ccc(S(=O)(=O)N4CCc5ccccc5C4)cc3)n2)c(OC)c1	12
Cc1occc1C(=O)Nc1ccc(S(N)(=O)=O)cc1	10
Cc1cccc(C)c1C(=O)N[C@@H](Cc1ccccc1)C(=O)O	26
CCOC(=O)CSc1ccc2nnc(CCNS(=O)(=O)c3ccc(C)cc3)n2n1	14
C/C(CCc1ccccc1)=N\NC(=O)C1C2CCCCC21 (centres undefined)	5
CCCCn1c(CNC(=O)C23CC4CC(CC(C4)C2)C3)nnc1SC(C)CC (centres undefined)	16
COc1cc(C2CC(=O)OC3=C2C(=O)CC(C)(C)C3)cc(OC)c1OC (centres undefined)	16
COc1ccc(N/C=C\C(=O)c2ccc(C)cc2)cc1OC	7
S=C(NCCc1ccccc1)NC1CC1	8
NS(=O)(=O)c1ccc(NC2=CC(c3ccc(F)cc3)N(c3ccc(S(N)(=O)=O)cc3)C2=O)cc1 (centres undefined)	-11
CC(C)C(NC(=O)c1ccccc1F)C(=O)Nc1ccc2c(c1)OCO2 (centres undefined)	-7
COc1ccc(N(CC(=O)NCCC2=CCCCC2)S(=O)(=O)c2ccc(C)cc2)cc1OC	11
CCOC(=O)/C(C(=O)Nc1ccc(Br)cc1)=C1/NC(C)(C)Cc2ccccc21	3
CCC(=O)Nc1c(C(=O)Nc2ccc3c(c2)OCCO3)oc2ccccc12	-4

(further entries)
compound	Biofilm kill mix
Cn1c(SCC(=O)N/N=C/C=C\c2ccccc2[N+](=O)[O-])nc2ccccc21	13
O=C(/C=C/c1c(Cl)cccc1Cl)n1cccn1	5
COc1ccc(/C=N/OCC(=O)Nn2c(C)nc3ccccc3c2=O)cc1	18
CCn1c2ccccc2c2cc(NC(=O)c3ccc(C)c([N+](=O)[O-])c3)ccc21	13
Nc1c(C(=O)N/N=C/c2cccnc2)oc2nc(-c3ccco3)cc(-c3ccco3)c12	7
CNc1ccc(S(=O)(=O)NC)cc1[N+](=O)[O-]	7
COC(=O)c1ccc(CN2CCN(CCC(C)C)C(CCO)C2)cc1 (centres undefined)	4
CC1=CC(C)(C)[N+](C)(C)c2ccccc21	22
CCN(CC)c1ccc(C=C2C(=O)OC3(CCCCC3)OC2=O)cc1	10
O=c1[nH]c2ccc(NC(=S)NC3CCCCC3)cc2[nH]1	28
COc1ncnc2c1oc1ccccc12	29
O=C(O)c1cc(-c2ccccc2)n[nH]1	11
COc1ccc(OCCCn2cccc2/C=C2/C(=N)N3OC(C)=CC3=NC2=O)cc1	15
COc1cc(NC(=S)NCCC(c2ccccc2)c2ccccc2)cc(OC)c1	10
CCN(CC)C(=S)NC(=O)c1ccc(OC)c(Br)c1	19
COc1ccccc1Nc1c2c(nc3ccc(N)cc13)CCCC2	17
O=C(NC(CC(=O)N1CCN(c2ccc([N+](=O)[O-])cc2)CC1)c1ccccc1)c1ccccc1Cl (centres undefined)	10
CCn1cc(/C=N/NC(=O)c2ccc3c(c2)OCO3)cn1	7
CCOc1ccc(Oc2c(/C=N/NC(C)=O)c(C)nn2-c2ccccc2)cc1	7
NC(=O)c1ccc(NC(=O)COC(=O)/C=C/c2cccs2)cc1	6

Taken from above, 2 compounds:
compound	Biofilm kill mix
CCOc1ccc(Oc2c(/C=N/NC(C)=O)c(C)nn2-c2ccccc2)cc1	7
NC(=O)c1ccc(NC(=O)COC(=O)/C=C/c2cccs2)cc1	6

Further results.
compound	Biofilm kill mix
Cc1cc(C)nc(NS(=O)(=O)c2ccc(NC(=S)NC(=O)CC(C)C)cc2)n1	4
O=C(O)CC1(CC(=O)Nc2ccccc2C(=O)c2ccccc2)CCCC1	10
CN1CCN(C(=S)NC(=O)/C=C/c2cccs2)CC1	19
CCCCN(CCCC)c1nc(-c2ccncc2)nc2ccccc12	13
CCCn1cc(CN2CCC(Cc3ccccc3)(C(=O)OCC)CC2)c(C)n1	8
Cc1cccc(C(=O)N[C@H](C(=O)OCc2cc(=O)n3c(n2)sc2ccccc23)C(C)C)c1	11
C/C(=N/NC(=O)CNC(=O)c1ccccn1)c1ccccc1	16
COc1cc(CCC(=O)Nc2cccc(C(F)(F)F)c2)cc(OC)c1OC	9
Cc1ccc(CN(Cc2ccccc2)C(=S)NCC(=O)NCc2cccnc2)o1	-2
O=C(c1ccco1)N1CCN(c2ncnc3scc(-c4ccc(F)cc4)c23)CC1	12
Cc1c(Cl)c(C(=O)NNC(=S)NCc2ccco2)nn1C	13
Cn1nnnc1SCC(=O)Nc1ccc2c(c1)OCCO2	12
O=C(N/N=C/c1cc([N+](=O)[O-])ccc1O)c1ccc2c(c1)OCCO2	15
CCn1nc([N+](=O)[O-])c(C(C#N)c2nc3ccccc3n2C)c(Cl)c1=O (centres undefined)	15
Cc1ccc(C)c(NC(=O)CN(C)C(=O)COc2ncnc3sccc23)c1	8
COc1ccc(C(=O)NCc2ccc(-n3cccc3)cc2)cc1OC	18
COC(=O)C1=C(Nc2ccccc2NS(=O)(=O)c2ccc(C(F)(F)F)cc2Cl)CSC1	9
COCCNC(=S)NCc1ccc2[nH]c3c(c2c1)CCCC3	14
